# RecA splice inh: Mtb RecA intein splicing inhibition. P9WHJ3. inhibition, %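 (about 9 µM by stock and volumes)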. cell-free RecA intein splicing, fluorescence. hit rate 0.75% among 290,000. AID 2221; in the data active = inhibition above about 30%; inconclusive = no clear call, values can overlap the other calls;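 note: 0% = vehicle wells and 100% = reference inhibitor control wells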
# Target sequence (P9WHJ3 whole entry, looked up, canonical isoform): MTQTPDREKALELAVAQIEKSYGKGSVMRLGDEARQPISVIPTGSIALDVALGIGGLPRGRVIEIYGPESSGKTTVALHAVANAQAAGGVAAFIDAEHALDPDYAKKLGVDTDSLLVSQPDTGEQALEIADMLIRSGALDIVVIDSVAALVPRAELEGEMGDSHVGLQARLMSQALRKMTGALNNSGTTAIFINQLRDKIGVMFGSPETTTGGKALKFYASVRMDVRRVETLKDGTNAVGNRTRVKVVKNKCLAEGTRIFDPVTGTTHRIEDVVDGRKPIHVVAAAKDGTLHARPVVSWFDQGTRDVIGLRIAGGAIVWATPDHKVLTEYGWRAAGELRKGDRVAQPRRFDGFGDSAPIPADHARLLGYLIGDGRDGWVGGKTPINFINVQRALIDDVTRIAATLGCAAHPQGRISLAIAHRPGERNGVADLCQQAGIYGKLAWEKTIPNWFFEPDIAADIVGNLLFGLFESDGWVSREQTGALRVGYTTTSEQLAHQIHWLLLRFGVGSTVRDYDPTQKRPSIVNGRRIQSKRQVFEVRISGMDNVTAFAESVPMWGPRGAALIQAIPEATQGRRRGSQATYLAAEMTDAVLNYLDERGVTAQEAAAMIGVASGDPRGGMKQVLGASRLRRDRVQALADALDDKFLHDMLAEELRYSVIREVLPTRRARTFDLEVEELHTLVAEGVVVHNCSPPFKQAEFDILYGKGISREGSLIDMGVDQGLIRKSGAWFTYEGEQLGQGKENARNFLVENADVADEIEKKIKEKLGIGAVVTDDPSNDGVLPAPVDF
# YopH inh: YopH (Yersinia) phosphatase inhibition | fluorescence Ex485/Em525 | inhibition, %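 (about 10 µM by stock and volumes)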 | hit rate 0.16% among 140,000;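 active = inhibition of 50% or more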;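 note: controls were vehicle for no effect and minimum signal wells for full effect; inactives centre near -20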
# Mtb growth: M. tuberculosis H37Rv growth inhibitors, H37Rv strain (AID 1626). M. tuberculosis H37Rv growth inhibition; higher % means a stronger effect. inhibition, % at 10 µM; hits with a dose series show IC50 in µM. hit rate 0.95% among 220,000;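 active = confirmed in a dose series; inconclusive = inhibition above 80% but not taken into the dose series; inactive = below 80% or under 30% at every dose of the series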;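 note: bacteria incubated seven days before Alamar blue readout; 0% = bacteria only wells and 100% = bacteria with antibiotic wells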
# Mtb bLac sens: beta-lactam sensitization of Mtb H37Rv. AID 434955. inhibition, % at 25 µM. hit rate 0.27% among 330,000. M. tuberculosis H37Rv growth with meropenem, percent inhibition; hits of this screen are not shown here;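 active = about 74% or more and at least 40 points above the plate without the antibiotic, then above 30% in a dose series; inconclusive = first-round hits that could not be retested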;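 note: growth measured after seven days incubation then overnight dye step; 0% = bacteria only wells and 100% = bacteria with antibiotic; twin plates without the antibiotic show which effects depend on it; some results filed as inactive read as strong as hits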
# Arbovirus inh: blocks arbovirus infection. arbovirus infection cell-based antiviral screen. inhibition, % at 10 µM. hit rate 0.37% among 200,000;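 active = inhibition from about 30%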;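 note: bluetongue infection of BSR cells; cell survival read as ATP light after 72 h; 0% = infected wells without compound and 100% = uninfected wells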
# Arbovirus inh repeat: also measured in Arbovirus inh; calls as there; inhibition, %; measured here: 10K subset replicate screen; many hits read low in the repeat;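 first of two repeat runs on a subset; 0% = infected and 100% = uninfected wells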
# Numbers without * were called inactive; ? = inconclusive; / = not tested or not shown. A portion of the library. The share of hits here may be higher or lower than overall.
SMILES,RecA splice inh,YopH inh,Mtb growth,Mtb bLac sens,Arbovirus inh,others
COc1cc2c(cc1OC)C(c1cc3cc4c(cc3[nH]c1=O)OCO4)N(C(=O)C(C)C)CC2 (centres undefined),0.7,-23,-9%,-1,2,
CCc1nc(-c2ccc(OC)c(OC)c2)cc2cc(OC)c(OC)cc12,-2.9,-21,6%,66,-11,
CCOc1ccc(CCNC(=O)COC(=O)c2cc(OC)c(OC)c(OC)c2)cc1OCC,4.5,/,7%,-6,6,
Cc1ccccc1NC(=O)CSc1nc(N2CCCCC2)nc(N2CCCCC2)n1,-0.4,7,-3%,2,9,
Cc1ccc(OCC(=O)N2CCCC(N3CCN(c4ccc(F)cc4)CC3)C2)cc1 (centres undefined),0.4,/,/,2,/,
Cc1oc2c(C)c(O)ccc2c(=O)c1-c1ccc2ccccc2n1,/,-17,-4%,1,0,
CN1C(=O)C(CC(=O)NCCc2ccccc2)N(NC(=O)c2cccc(F)c2)C1=S (centres undefined),-0.3,/,/,-1,/,
N#CCc1ccc(OC(=O)c2ccncc2)cc1,4.2,/,/,-2,/,
Cc1ccc(F)c([C@H]2[C@@H]3C=CCC[C@@]3(C)C(=O)N2Cc2ccccc2)c1,25,/,-6%,-2,/,
CCC(c1nnc(SCC(=O)Nc2cc(S(C)(=O)=O)ccc2Cl)n1Cc1ccccc1)N(C)C (centres undefined),-1.0,/,/,-9,/,
COc1cccc(CNC2CN3CCC2CC3)c1OC (centres undefined),-4.1,-18,-11%,-3,3,
CCCCNc1ccc(C(CC(N)=O)NC(=O)c2cc(C)cc(C)c2)cc1[N+](=O)[O-] (centres undefined),-2.8,/,/,-2,/,
CCCC(=O)C1C(=O)NC(=O)NC1=O,0.1,-31,1%,-5,7,
CCCCOC(=O)Nc1nnc(Cc2ccc(Cl)cc2)s1,-0.1,/,23%,-3,18,
CC(OC(=O)c1cccs1)C(=O)NCc1cccs1 (centres undefined),0.4,0,1%,0,4,
Cc1nn(Cc2ccccc2)c(C)c1NC(=O)Cn1nc([N+](=O)[O-])c(Cl)c1C,/,-39,6%,8,13,
CCc1nc2cc(Cl)c(Cl)cc2nc1CC,-0.2,/,-6%,-2,/,
COc1ccccc1CNC(=O)CSc1nc2nc(C)cc(C)n2n1,-0.6,-6,-6%,19,2,
CCn1nnnc1SCCSc1nnnn1CC,1.5,-4,-12%,13,0,
CC(C)C(c1nnnn1Cc1ccccc1)N1CCC(C(N)=O)CC1 (centres undefined),-0.1,-45,0%,-15,-3,
Cc1ccc(S(=O)(=O)N2CCC(C(=O)Nc3ccccc3N3CCCC3)CC2)c(C)c1,-1.3,/,/,-7,/,
O=C(Cc1ccc(F)cc1)NCCS(=O)(=O)N1CCN(c2ccccc2)CC1,-3.2,/,/,-1,/,
CCCCCN(C(=O)CCC(=O)OCC(=O)N(C)Cc1ccccc1C)c1c(N)n(CCCC)c(=O)[nH]c1=O,-3.2,/,/,-7,/,
COC(=O)/C=C1\NCCNC1=O,-0.2,/,3%,-10,/,
COc1ccc(N2CCN(C(=O)COC(=O)Cc3ccc(F)cc3)CC2)cc1,-2.8,/,/,11,/,

# Later entries.
SMILES,RecA splice inh,YopH inh,Mtb growth,Mtb bLac sens,Arbovirus inh,others
O=C(NCCN1CCCC1)c1ccc2c(c1)N(Cc1ccccc1)C(=O)c1ccccc1S2(=O)=O,2.1,/,/,-10,/,
CCOC(=O)N1CCC(NC(=O)c2oc3c(C)c(C)ccc3c2C)CC1,4.0,/,/,7,/,
O=[N+]([O-])c1ccc(CN2CCN(Cc3c[nH]c4ccccc34)CC2)cc1,-1.2,/,5%,-2,2,
N=c1n(CCCOc2ccccc2Cl)c2ccccc2n1CC(N)=O,-1.2,/,5%,-9,/,
CN1CCN(c2nc3c(c(=O)[nH]c(=O)n3C)n2CCCSc2ncccn2)CC1,0.8,-32,3%,10,8,
CCOC(=O)C(=O)NC(C)c1ccccc1 (centres undefined),-1.6,/,70%,0,2,
Cc1cc(Nc2ccccc2N2CCOCC2)n2ncnc2n1,-0.3,20,-3%,5,3,
Cc1ccc2c(CC(=O)OC(C)C(=O)NCc3ccc4c(c3)OCO4)coc2c1 (centres undefined),-0.4,-44,-10%,11,-4,
O=C(Nc1nnc(S(=O)(=O)N2CCCCCC2)s1)c1ccc(Cl)cc1,-1.0,/,/,0,/,
COc1ccc(C2c3[nH]c4ccccc4c3CCN2C(=O)c2ccc(=O)n(C)n2)c(F)c1 (centres undefined),2.7,/,8%,43,-6,
O=C(CCCSc1nc2ccccc2[nH]1)Nc1nnc(C2CC2)s1,0.0,/,-10%,-2,-1,
Cc1cc(C(C)(C)C)oc1C(=O)N1CCN(C(=O)c2oc(C(C)(C)C)cc2C)CC1,/,-17,-5%,/,7,
CC(C)Oc1ccc(C(=O)OC(C)C(=O)Nc2nc(-c3cccc([N+](=O)[O-])c3)cs2)cc1 (centres undefined),0.0,7,37%,26,6,
COc1ccc(-c2cc(C#N)nc(NN)n2)cc1,/,/,4%,-3,/,
COc1cc(C(=O)ONC(=O)c2ccc(OC(F)F)cc2)cc(OC)c1OC,2.8,/,/,2,/,
Cc1cc(C)c2nc(-c3ccccn3)cc(C(=O)Nn3cnnc3)c2c1,2.9,/,4%,-5,4,
CCCn1c(SCCC(=O)O)nc2ccccc21,0.3,/,2%,-4,-2,
COc1cc(Cl)c(C)cc1NC(=O)CN(C)Cc1cccc(OC)c1OC,18,/,9%,14,4,
CCc1ccc(N(CC(=O)N2CCOCC2)S(C)(=O)=O)cc1,0.1,/,/,-6,/,
COc1ccccc1N1CCN(C(=O)CSc2nnc(NC(=O)C(C)C)s2)CC1,3.3,/,0%,-3,1,
CCCCn1c(=O)n(CC(=O)Nc2ccc(C)c(Cl)c2)c(=O)c2c1ncn2Cc1ccco1,-1.4,-45,4%,-9,-5,Arbovirus inh repeat=-4
Cc1cccc(Oc2coc3cc(O)ccc3c2=O)c1,-5.8,/,/,7,/,
CCOCCCn1c(=O)c2ccccc2n2c(=S)[nH]nc12,-2.9,/,/,4,/,
Cc1onc(-c2c(F)cccc2Cl)c1C(=O)N1CCCCC1,-2.7,/,/,-4,/,
COc1ccc(Cn2c(=O)[nH]c3cc(C(=O)NC4CCCC4)ccc3c2=O)cc1,/,/,6%,-4,0,

# Next section
SMILES,RecA splice inh,YopH inh,Mtb growth,Mtb bLac sens,Arbovirus inh,others
O=C(NCC1CCCO1)c1ccc(Cn2c(=S)[nH]c3ccccc3c2=O)cc1 (centres undefined),-1.6,/,-5%,-1,3,
O=C(CCc1cn(Cc2ccc(F)cc2)c2ccccc12)N1CCOCC1,-0.2,/,/,1,/,
O=[N+]([O-])c1ccc(O)c(C=Nc2cccc3ccccc23)c1,2.1,/,/,20,/,
CCOc1ccc(S(=O)(=O)N(C)c2ccc(OCC(=O)NCc3cccnc3)cc2)cc1,0.4,/,1%,0,4,
CCOC(=O)c1c(C)n(CC)c2c1cc(O)c1ccccc12,-2.3,/,/,7,/,
CCCCN1C(=O)Nc2ccccc2S1(=O)=O,-3.6,-19,3%,-3,1,
CCOc1ccc(NS(=O)(=O)c2ccc(C(=O)N(C)CC(=O)Nc3ccc(C)cc3)cc2)cc1,-3.2,/,/,1,/,
Cc1oc(-c2cccs2)nc1CS(=O)CC(=O)NCCCN1CC(C)CC(C)C1 (centres undefined),0.7,-25,-3%,-4,1,Arbovirus inh repeat=0
O=C(C[n+]1ccc(C(=O)N/N=C/c2ccc(Cl)cc2Cl)cc1)c1ccccc1,-3.6,28,?,94,-2,
O=C(CNC(=O)c1ccccc1)OCC(=O)c1cccs1,-0.4,/,/,0,/,
CCc1nnc(NC(=O)CCC(=O)NCCc2ccc(OC)c(OC)c2)s1,2.4,-44,-4%,0,-5,
CC1(C)CC(=O)C2=C(C1)N(Cc1cccnc1)C(=O)C2(NC(=O)c1cccnc1)C(F)(F)F (centres undefined),-1.8,-26,-14%,3,1,
C=CCNC(=S)NNc1nc2sc3c(c2c(=O)[nH]1)CC(C)(C)OC3,-4.7,/,/,5,/,
NC(=O)[C@@H]1CC2(CC(c3cccc(NC(=O)CC(c4ccccc4)c4ccccc4)c3)=NO2)CN1C(=O)c1ccc(Cl)cc1 (some centres undefined),14,/,24%,99,/,
CCOC(=O)c1[nH]nc2c1C(=O)N(Cc1ccccc1)C2=O,8.6,-45,1%,18,4,
Cc1ncsc1CCSc1n[nH]c(=O)n1-c1ccccc1,-3.6,-23,-3%,-8,9,
CSc1nc2ccc(NS(=O)(=O)c3ccc4c(c3)OCCO4)cc2s1,-1.2,-24,0%,-5,32*,Arbovirus inh repeat=7.1*
COc1cccc(CN(C)C(=O)c2cc(COc3c(F)cccc3F)on2)c1,5.5,/,4%,3,-2,
COc1cc(NC(=O)CN2C(=O)CN(C)C2=O)c(C)cc1[N+](=O)[O-],-1.1,/,2%,-3,-4,
O=C(NCC(=O)N(c1cccc(F)c1)C(C(=O)NC1CCCC1)c1ccncc1)c1cccs1 (centres undefined),-1.1,/,/,-2,/,
O=C(Cn1nnc(-c2ccccc2)n1)c1ccccc1,0.8,-8,2%,-1,-6,
O=C(NCc1c[nH]c2ccccc12)c1ccccc1,-0.1,/,/,-5,/,
COC(=O)c1c(C)oc2c1cc(NS(=O)(=O)c1ccc(C(=O)O)cc1)c1ccccc12,20,/,/,2,/,
CC1(C)CC(=O)C(C(C2=C(O)CC(C)(C)CC2=O)c2ccc(Br)s2)C(=O)C1 (centres undefined),1.9,-34,10%,5,-7,
Cc1cnc(C(=O)OCC(=O)Nc2ccc(C)c(S(=O)(=O)N3CCCCC3)c2)cn1,/,-30,-21%,0,2,

# Later entries.
SMILES,RecA splice inh,YopH inh,Mtb growth,Mtb bLac sens,Arbovirus inh,others
CCOC(=O)CC(=O)CSc1nc(CC)c(C)cc1C#N,-10,/,-12%,7,/,
c1cncc(-c2nc(-c3ccco3)cs2)c1,-2.7,-40,2%,-5,-2,
CCC(C)NC(=O)c1ccc(C2SCC(=O)N2Cc2ccccc2)cc1 (centres undefined),3.4,/,0%,-3,7,
C/C=C(\C)C(=O)N1CC2(CC(c3cccc(NC(=O)CCCCC)c3)=NO2)C[C@@H]1C(N)=O (some centres undefined),2.4,/,-7%,-3,/,
Cc1ccc(C2OC34CCCCCC3C(C#N)(C(=N)O4)C2(C#N)C#N)cc1 (centres undefined),-117,-8,4%,6,2,
COC(=O)c1cc2c(ccn2-c2ccc(F)cc2)n1Cc1ccc(OC(C)=O)cc1,7.7,-14,18%,0,8,
CCCC(C(=O)NCc1ccco1)N(C(=O)CNS(=O)(=O)c1ccc(Cl)cc1)C1CCCC1 (centres undefined),3.9,-10,7%,27,-32,
O=C(C1CCCN(S(=O)(=O)c2ccc(Br)s2)C1)N1CCN(c2ccccc2)CC1 (centres undefined),6.0,/,/,44,/,
N#CCSCC(=O)Nc1ccc(Cl)cc1,-0.1,-19,-7%,3,3,
COCCN(C(=O)CSc1nc2nc(C)cc(C)n2n1)c1c(N)n(Cc2ccccc2)c(=O)[nH]c1=O,-0.6,/,3%,-1,-4,
Cc1c(C(=O)N2CCOCC2)sc(NC(=O)C(C)C)c1C#N,-1.3,/,/,-10,/,
CCn1c(SCc2cccnc2)nnc1-c1c[nH]c2ccccc12,-4.7,/,2%,-1,-5,
COc1ccc(OC(=O)COc2cccc(C)c2)cc1,4.6,/,/,3,/,
O=C(CN1C(=O)c2ccc([N+](=O)[O-])cc2C1=O)NCc1ccc(C(=O)O)cc1,-11,/,/,2,/,
COc1ccc(N2C(=O)NC(NS(=O)(=O)c3ccccc3)(C(F)(F)F)C2=O)cc1 (centres undefined),2.1,/,/,?,/,
CN(C(=O)CN1CCC(NC(=O)c2ccccc2Br)CC1)C1CCCCC1,-0.3,/,/,3,/,
O=C(O)c1ccccc1Oc1ccc(Oc2ccccc2)cc1,0.5,/,/,-2,/,
COc1ccc(CC(=O)NCc2nnc(SCC(=O)c3ccc(OC)cc3)n2C)cc1,-0.4,/,7%,3,8,
CCOc1ccc(NC(=O)CSc2nnc(-c3ccccn3)n2N)cc1,-2.2,-14,72%,94,10,
Cc1c(C(=O)N2CCOCC2)sc(NC(=O)c2ccc3c(c2)OCO3)c1C#N,-4.9,-24,-3%,-5,0,

# Ordered by molecular weight (ascending): 6 of the compounds above
SMILES,RecA splice inh,YopH inh,Mtb growth,Mtb bLac sens,Arbovirus inh,others
O=C(O)c1ccccc1Oc1ccc(Oc2ccccc2)cc1,0.5,/,/,-2,/,
CCn1c(SCc2cccnc2)nnc1-c1c[nH]c2ccccc12,-4.7,/,2%,-1,-5,
Cc1ccc(C2OC34CCCCCC3C(C#N)(C(=N)O4)C2(C#N)C#N)cc1 (centres undefined),-117,-8,4%,6,2,
CCC(C)NC(=O)c1ccc(C2SCC(=O)N2Cc2ccccc2)cc1 (centres undefined),3.4,/,0%,-3,7,
CCOc1ccc(NC(=O)CSc2nnc(-c3ccccn3)n2N)cc1,-2.2,-14,72%,94,10,
COc1ccc(N2C(=O)NC(NS(=O)(=O)c3ccccc3)(C(F)(F)F)C2=O)cc1 (centres undefined),2.1,/,/,?,/,
